Assay outcomes deposited in PubChem BioAssay by National Center for Advancing Translational Sciences (NCATS).
LASV entry inh: qHTS for Inhibitors of binding or entry into cells for Lassa Virus; Lassa virus pseudotype entry inhibition, cell reporter; control for the full effect not named in the record; 300,000 compounds, 1.2% hits; Potency, µM (highest dose often 37.9 µM), for inactives: top-dose activity change, negative = inhibition, actives largely listed as inhibitors; active means well fitted inhibition curve with a large enough effect; inconclusive means small, poorly fitted or top-dose-only effect, or effect the other way; inactive means flat fitted curve, though single readings scatter; tested in HEK293 cells; note: % is set by controls: 0 for no effect and ±100 for the full control effect; nearly all actives have a fitted effect of over 50% in size; luciferase read-out
Marburg entry inh: qHTS for inhibitors of binding or entry into cells for Marburg Virus; Potency, µM (doses to about 37.8 µM), without a hit: at the top dose activity change, negative = inhibition, most hits filed as inhibitors; 300,000 compounds, 1.8% hits; Marburg virus pseudotyped entry inhibition, cell reporter; control for the full effect not named in the record; about a third of the inactives were read at about 46 µM; AID 540276, 2011; active = well fitted inhibition curve with a large enough effect; inconclusive = small, poorly fitted or top-dose-only effect, or effect the other way; inactive = flat fitted curve, though single readings scatter; tested in HEK293 cells; about a fifth of its hits are not listed in these tables; note: % is set by controls: 0 for no effect and ±100 for the full control effect; luciferase read-out
RE007 growth inh: qHTS Assay for Inhibitors of the HIV-1 protein Vpr; Potency, µM (doses to about 92.2 µM), for inactives: at the top dose activity change, negative = less growth; S. pombe RE007 Vpr strain, BacTiter-Glo ATP luminescence, 24 h; control for the full effect not named in the record; 360,000 compounds, 0.21% hits; AID 651644, 2012; active = well fitted falling curve with a large enough effect; inconclusive = small, poorly fitted or top-dose-only effect; inactive = no such curve, though single readings can be large or run the other way;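 note: % is set by controls: 0 for no effect and ±100 for the full control effect; nearly all actives have a fitted effect of over 50% in size; the assay follows cell death caused by Vpr and the record does not say whether a fall means rescue or toxicity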
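Fission yeast RE007 carrying one integrated HIV-1 vpr copy, seeded at OD 0.01 in PMG+AL medium with 23 nL pinned compound. Grown 24 h at 30 degrees; viability read by BacTiter-Glo luminescence after 5 min.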
Cruzain Triton: qHTS Assay for Promiscuous and Specific Inhibitors of Cruzain (with detergent); Cruzipain (Trypanosoma cruzi), P25779; purified cruzain, Z-FR-AMC fluorescence, 0.01% Triton; Potency, µM, inactives show max response, negative = inhibition, most hits filed as inhibitors; 200,000 compounds, 0.43% hits; active = well fitted curve in the direction sought with a large enough effect; inconclusive = small, poorly fitted or top-dose-only effect, or another doubt; inactive = no such curve, though single readings can be large; an effect the other way counts as inactive or inconclusive;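 note: plate controls were neutral wells for no effect and buffer without enzyme for full effect; nearly all actives have a fitted effect of over 40% in size; top concentration of the series not given in the record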
Target sequence (P25779 123-467 limits assumed): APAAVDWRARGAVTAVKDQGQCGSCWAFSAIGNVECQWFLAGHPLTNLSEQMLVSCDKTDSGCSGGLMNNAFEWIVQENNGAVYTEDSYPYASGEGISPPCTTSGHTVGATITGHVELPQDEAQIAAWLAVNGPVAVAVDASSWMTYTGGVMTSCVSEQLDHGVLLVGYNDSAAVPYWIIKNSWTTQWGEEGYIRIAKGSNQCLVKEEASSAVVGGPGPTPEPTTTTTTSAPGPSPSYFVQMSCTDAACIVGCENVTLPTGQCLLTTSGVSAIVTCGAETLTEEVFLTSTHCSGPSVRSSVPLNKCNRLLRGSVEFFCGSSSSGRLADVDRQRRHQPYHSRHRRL
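Steps: dispense cruzain (1.5 nM final) in acetate buffer pH 5.5 with DTT and 0.01% Triton X-100; pin-transfer compounds; incubate 15 min RT; add Z-FR-AMC (2 uM final); read fluorescence every 30 s, using the 60 s intensity change.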
NS1 inh: qHTS Assay for Inhibitors of Influenza NS1 Protein Function | Potency, µM (series often up to 46.1 µM), for the others: at the highest dose activity, positive = more growth | 270,000 compounds, 0.4% hits | S. cerevisiae slowed by influenza A NS1, growth recovery by OD600 | AID 2326, 2010; note: actives are rising curves; nearly all actives have a fitted effect of over 50% in size
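OD600 was taken as the measure of yeast growth restored by compound in an NS1-expressing S. cerevisiae strain. Cells had been washed out of glucose medium and diluted 1:100 into galactose -URA medium, pH 6.0.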
2A StopGo: High Throughput Screening for Foot and Mouth Disease Virus Antivirals; AID 1159524, 2015; Potency, µM (doses to about 57.9 µM), without a hit: at the highest dose signal change, negative = less light; 410,000 compounds, 1.2% hits; human cells with a luciferase reporter of 2A StopGo recoding; control for the full effect not named in the record; active = well fitted falling curve with a large enough effect; inconclusive = small, poorly fitted or top-dose-only effect; inactive = no such curve, though single readings can be large or run the other way; tested in HEK293T cells; note: % is set by controls: 0 for no effect and ±100 for the full control effect; nearly all actives have a fitted effect of over 45% in size; luciferase light after 4 h
Cruzain inh noDet: qHTS Assay for Promiscuous and Specific Inhibitors of Cruzain (without detergent); purified cruzain, Z-FR-AMC fluorescence, no detergent; Potency, µM, without a hit: max response, negative = inhibition, usual class: inhibitors; 200,000 compounds, 2.3% hits; active = well fitted curve in the direction sought with a large enough effect; inconclusive = small, poorly fitted or top-dose-only effect, or another doubt; inactive = no such curve, though single readings can be large; an effect the other way counts as inactive or inconclusive;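 note: plate controls were enzyme without inhibitor for no effect and buffer without enzyme for full effect; nearly all actives have a fitted effect of over 40% in size; top concentration of the series not given in the record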
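Purified cruzain at 1.5 nM, pre-incubated 15 min with compound at room temperature in 100 mM sodium acetate pH 5.5, 5 mM DTT, 0.00005% Triton X-100. Reaction started with 2 uM Z-FR-AMC; AMC fluorescence increase over 60 s gives rate.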
SARS PLP yeast: qHTS of Yeast-based Assay for SARS-CoV PLP; S. cerevisiae expressing SARS-CoV PLpro, growth rescue; control for the full effect not named in the record; Potency, µM (top dose mostly 32.9 µM), for inactives: at the top dose activity, positive = growth rescue; 330,000 compounds, 0.19% hits; note: 0% is about no effect; nearly all actives have a fitted effect of over 55% in size; growth read by luminescence after 48 h
Numbers without * were called inactive; ? = inconclusive; · = no result given; [ ] = dose if it differs, or a comment. Unless noted, calls come from the whole dose curve; as a rule, active means well fitted rising curve with a large enough effect; inconclusive means small, poorly fitted or top-dose-only effect; inactive means no such curve, though single readings can be large or run the other way. Potency is the fitted concentration of half-maximal effect.

Second line of a record: RE007 growth inh | Cruzain inh noDet | Cruzain Triton | LASV entry inh | Marburg entry inh | NS1 inh | SARS PLP yeast | 2A StopGo
> CCc1nnc(NC(=O)c2cc(-c3ccccn3)nc3ccc(Br)cc23)s1
→ 7% | · | · | 3% | 21% | 23% | 8% | -24%
> COc1cc(OC)cc(C(=O)NC2CCN(Cc3nnnn3Cc3ccc(F)cc3)CC2)c1
→ -7% | · | · | · | · | 0% | 1% | -13%
> CCc1ccc(N(C2C=CS(=O)(=O)C2)S(=O)(=O)c2ccc(C)cc2)cc1 (stereo unspecified)
→ 17% | · | · | · | · | -11% | 0% | -20%
> COc1ccc(N2CCN(Cc3nc(-c4ccc(C)cc4)no3)CC2)cc1
→ · | 3% | -5.4% | -12%[46.1 µM] | 3%[46.1 µM] | · | · | ?
> Cc1cccc(NC(=O)N2C[C@H]3C[C@@H](C2)c2cccc(=O)n2C3)c1
→ 15% | · | · | · | · | -7% | -3% | -10%
> Nc1c2c(nc3ccccc13)CCN(Cc1ccccc1)C2
→ -1% | · | · | · | · | -3% | -1% | 20%
> COCc1cc(C)nc2sc(C(=O)N3CCCCC3)c(N)c12
→ 21% | 5% | -3.2% | -9%[14.3 µM] | -13% | -1% | -6% | -22%
> O=C(NC(=S)Nc1ccc(N2CCCCC2)cc1)c1ccco1
→ -7% | -1% | -5.5% | 76%[14.3 µM] | ? | -1% | -2% | 33%[activator]
> COc1cccc(CNC(=O)c2ccccc2-c2ccccc2)c1
→ -3% | · | · | -1%[46.1 µM] | 4%[46.1 µM] | 5% | 1% | -13%
> Cc1cccc(NC(=S)N2N=CCC2c2ccccc2)c1 (stereo unspecified)
→ 5% | -9% | -1.6% | -22% | -3% | 1% | -1% | 52%[activator]
> COc1ccc(CN(Cc2cc3cc(OC)c(OC)cc3[nH]c2=O)C(=O)NC2CCCCC2)cc1
→ -2% | ? | -6.1% | -19% | -15% | 3% | 16% | -8%
> COc1ccc(N2CCN(C(c3cccs3)C(C)NC(=O)C(=O)N3CCOCC3)CC2)cc1 (stereo unspecified)
→ -2% | · | · | · | · | 18% | 6% | 3%
> CC(=O)NN=C1CCC(c2ccccc2)CC1 (stereo unspecified)
→ 22% | 4% | -2.2% | 1% | 4% | -12% | 7% | -14%
> CC1CCCC(=NNc2ccc3ccccc3n2)C1 (stereo unspecified)
→ 4% | · | · | ? | ? | · | · | -22%
> Cc1ccccc1CN1CCN(C/C=C/c2ccccc2)CC1
→ -14% | 6% | 6.3% | 0% | ? | 3% | -4% | ·
> COc1cc(/C=C2/C(=N)N3C(c4ccccc4)=CSC3=NC2=O)ccc1OCC(=O)O
→ 1% | · | · | · | · | 8% | -6% | 13%
> Brc1ccc(-c2csc(/N=C/N3CCCC3)n2)cc1
→ ? | · | · | ? | 8.9µM* | · | -10% | -22%
> O=C(COc1ncnc2ccccc12)Nc1cc([N+](=O)[O-])ccc1Cl
→ -13% | · | · | -3% | -24%[14.2 µM] | · | 0% | -9%
> COc1ccc(C(=O)COc2ccccc2C(=O)Nc2ccccc2)cc1
→ 11% | · | · | · | · | -1% | 0% | -14%
> O=S(=O)(Nc1ccc(-c2ccc(N3CCCC3)nn2)cc1)c1ccc(Br)cc1
→ · | ? | -4.7% | -25%[46.1 µM] | · | · | · | 26%
> Cc1ccc(CN2CCN(Cc3ccccc3C(F)(F)F)CC2)cc1
→ -6% | -5% | 3.3% | ? | ? | 10% | -5% | ·
> Cc1cccc(C)c1OCc1nc2ccccc2c(=O)n1/N=C/c1ccc(OCC(=O)O)cc1
→ -5% | ? | -6.2% | 7% | ? | 10% | -5% | -12%
> N#Cc1ccc(-c2ccc(OCC(O)CN3CCCCC3)cc2)cc1 (stereo unspecified)
→ -4% | · | · | 6%[46.1 µM] | ? | 7% | 0% | -23%
> O=C(NC1CCCC1)C(c1ccncc1)N(Cc1ccccc1)C(=O)c1ccc(-c2ccccc2)[nH]1 (stereo unspecified)
→ -6% | -24% | -7.0% | ? | ? | 2% | 3% | -3%
> CCCCNC(=O)Cn1c(=O)c2c(ncn2CCC(C)C)n(Cc2ccccc2)c1=O
→ -9% | · | · | 0%[46.1 µM] | ? | -12% | -3% | -5%
> Cc1ccc(NC(=O)Cn2nc(-c3ccc(Cl)cc3)c3ccccc3c2=O)cc1
→ · | -3% | -1.5% | 10%[46.1 µM] | 29%[46.1 µM] | · | · | -25%
> Cc1cccc(-c2nnc(-c3ccccc3)o2)c1
→ ? | 8% | -2.0% | 0% | 28% | -100% | -3% | 30%
> COc1ccc(-c2cc3nc(C)c(CCC(=O)Nc4ccc(F)cc4F)c(C)n3n2)c(OC)c1
→ · | 22% | -4.5% | 14%[46.1 µM] | 6%[46.1 µM] | · | · | 20%
> CCCC(=O)N(Cc1cc(=O)[nH]c2ccccc12)c1cccc(C)c1
→ 9% | · | · | -5% | 26% | 3% | 2% | -18%
> COC(=O)c1c(C)oc(C)c1S(=O)(=O)NCc1ccco1
→ 4% | · | · | · | · | 1% | 0% | 53%[activator]
> CCCOC(=O)C1=C(C)OC23OC(N)=C(C#N)C12C(=O)c1ccccc13 (stereo unspecified)
→ 6% | -13% | -5.1% | -16% | -1% | 8% | 6% | 10%
> CC(C)C(Nc1ccc(C(F)(F)F)cc1[N+](=O)[O-])C(=O)O (stereo unspecified)
→ -15% | · | · | 21%[46.1 µM] | 7%[46.1 µM] | · | -3% | -22%
> CCCCN(C)C1CCN(C(=S)Nc2ccc(OCC)cc2)CC1
→ 24% | · | · | -6% | 5%[46.1 µM] | · | 0% | -14%
> Cn1nc([N+](=O)[O-])nc1N1CCN(c2ccc(F)cc2)CC1
→ -3% | -1% | 5.5% | 20% | 22% | -4% | 5% | 1%
> O=C(Nc1ccc2c(c1)OCO2)c1cc(-c2cccc(Cl)c2)on1
→ · | -7% | -2.8% | -1%[46.1 µM] | ? | · | · | 17%
> COc1ccc(OCC(O)CN2CCC(CN3C(=O)c4cccc5cccc(c45)C3=O)CC2)cc1 (stereo unspecified)
→ -2% | 8% | -1.0% | ? | 4.5µM* | -4% | -3% | -16%
> Cc1c(Cl)cccc1Nc1nc(N)nc(CSCCO)n1
→ -14% | 2% | -1.1% | 14% | 4% | -3% | 6% | -8%
> COc1ccc(C(=O)NC(=S)Nc2ccc(S(N)(=O)=O)cc2)cc1
→ -23% | · | · | 2% | ? | -5% | -1% | 26%
> Fc1ccc(Cn2nnnc2C(c2ccc(F)cc2)N2CC=C(c3ccc(F)cc3)CC2)cc1 (stereo unspecified)
→ 13% | -26% | -4.9% | -20% | -7%[46.1 µM] | -5% | -34% | -14%
> COc1ccc(OC)c(NC(=O)CN2CCC(NC(=O)c3ccccc3C)CC2)c1
→ -6% | · | · | · | · | -7% | -6% | -16%
> O=C1CC(=O)N(c2cccc(C(F)(F)F)c2)C(=O)N1
→ 24% | · | · | · | · | 4% | 0% | -12%
> CCCC(=O)Nc1nnc(SCC(=O)Nc2ccc3c(c2)OCO3)s1
→ -4% | 1% | 0.5% | 14% | ? | 28% | -17% | -16%
> COCc1c(Br)c(C)nc2sc3c(=O)n(-c4cccc(Br)c4)nnc3c12
→ · | 6% | 3.9% | 28%[46.1 µM] | 9%[46.1 µM] | · | · | 0%
> C=CCNC(=S)NNc1nc2c(c(=O)[nH]1)C1(CCCC1)Cc1ccccc1-2
→ 7% | -8% | -11% | · | · | 10% | 6% | 26%
> COC(=O)CSc1nnc2n(C3CCCCC3)c(=O)c3c4c(sc3n12)CCCC4
→ 28% | ? | -3.0% | 10% | ? | -30% | -17% | ·
> Cc1ccc(NCc2n[nH]c(=S)n2Cc2ccccc2)cc1Cl
→ 3% | · | · | -27%[46.1 µM] | ? | -2% | -1% | -5%
> CCn1c(COc2ccccc2Cl)nnc1SCC(=O)Nc1ncccc1C
→ -19% | -3% | -0.2% | 18% | ? | 7% | 5% | -23%
> O=S(=O)(NCCc1nnc2ccc(SCc3c(F)cccc3Cl)nn12)c1ccccc1
→ · | ? | -6.8% | -8%[46.1 µM] | · | · | · | 13%
> COc1cccc(CN2CCN(CCCc3ccccc3)C(CCO)C2)c1O (stereo unspecified)
→ 0% | · | · | · | · | -2% | 2% | -8%
> O=c1nc(-c2ccccc2)c2ccccc2[nH]1
→ 12% | -11% | -3.3% | 1% | -5% | -11% | 14% | ?
> O=C(c1cnn2c(C(F)F)cc(-c3ccccc3)nc12)N1CCOCC1
→ -5%[3.69 µM] | 13% | -0.5% | 4% | -10% | 4% | 29% | -8%
> COc1cc(NC(=O)c2cccc(Cl)c2)c(OC)cc1NC(=O)CN1CCCCC1
→ -17% | · | · | -29% | ? | -3% | 1% | -20%
> CCN(CC)S(=O)(=O)c1cc(F)ccc1OC
→ -5% | -9% | 0.4% | 7% | 3% | 10% | 11% | -5%
> COc1cc(/C=N/n2nnnc2N)ccc1OCc1c(C)no[n+]1[O-]
→ 5% | 14% | 2.3% | 13% | ? | 10% | -4% | 0%
> O=C(Nc1nc2c(F)cccc2s1)c1ccc(S(=O)(=O)N2CCCc3ccccc32)cc1
→ · | -1% | 1.2% | ? | · | · | · | ?
> Cc1ccc(NC(=O)CSc2nc3ccccc3c3nc4ccccc4n23)cc1
→ -16% | ? | 0.4% | ? | 6.5µM* | 6% | 1% | -7%
> COc1ccc(-c2cc(N3C(=O)Nc4ccccc4N3O)n[nH]2)cc1
→ 0% | 6% | -3.0% | -10% | -7% | 7% | 11µM* | -15%
> COc1ccc(/C=N/NC(=O)c2cccnc2)cc1CN1CCCc2ccccc21
→ 13% | · | · | -3% | -10%[46.1 µM] | · | -2% | ?
> CSc1ccc(/C=N/n2c(COc3ccccc3)n[nH]c2=S)cc1
→ 20% | · | · | · | · | 7% | 0% | -27%
> COc1cc(O)oc1C=Nc1ccc(Cl)cc1
→ -4% | 4% | -3.7% | 3% | 7% | -14% | -1% | -15%
